GLA inh pH 4.5 = qHTS Assay for Inhibitors of Human alpha-Galactosidase at pH 4.5; activity change, negative = inhibition, % at 105 µM; Alpha-galactosidase A (Homo sapiens), P06280; 230,000 tested, under 10 active; AID 1467, 2008; purified enzyme, 4-MU-alpha-Gal fluorescence, pH 4.5; inconclusive = small, poorly fitted or top-dose-only inhibition, or a rising curve; inactive = flat fitted curve, though single readings scatter; no compound was filed as active;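 also: 0% = full activity with enzyme and -100% = basal without enzyme; dose as in the result columns while the protocol names 77 µM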
Target sequence (P06280 whole entry, looked up): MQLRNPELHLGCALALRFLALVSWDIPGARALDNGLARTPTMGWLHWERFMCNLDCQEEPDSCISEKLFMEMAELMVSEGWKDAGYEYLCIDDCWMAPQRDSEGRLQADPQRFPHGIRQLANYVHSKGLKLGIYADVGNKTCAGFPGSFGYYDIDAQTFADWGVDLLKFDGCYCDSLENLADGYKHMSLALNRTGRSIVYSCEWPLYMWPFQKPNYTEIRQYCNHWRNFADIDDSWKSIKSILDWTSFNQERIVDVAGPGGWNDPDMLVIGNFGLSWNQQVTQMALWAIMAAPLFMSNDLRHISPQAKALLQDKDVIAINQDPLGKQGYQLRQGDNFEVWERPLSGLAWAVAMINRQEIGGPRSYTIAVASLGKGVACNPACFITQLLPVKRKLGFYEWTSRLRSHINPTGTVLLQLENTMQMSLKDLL
miR-21 FLuc = qHTS Assay for Modulators of miRNAs and/orActivators of miR-21 | HeLa miR-21 FLuc reporter, luciferase, 48 h | Potency, µM (highest dose often 38.3 µM), without a hit: top-dose reporter change, positive = more light | 340,000 tested, under 10 active; active = well fitted rising curve with a large enough effect; inconclusive = small, poorly fitted or top-dose-only effect; inactive = no such curve, though single readings can be large or run the other way;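 also: % of control where 0% means no effect; miR-21 action dims this reporter so a rising signal means less miR-21 action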
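HeLa cells endogenously expressing miR-21, stably carrying CMV-driven firefly luciferase with a downstream miR-21 binding site, 2000 cells/well. Titrations up to approximately 40 uM, 48 hours; luciferase luminescence read.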
Rango release inh = qHTS Assay for Inhibitors of RanGTP induced Rango (Ran-regulated importin-beta cargo) - Importin beta complex dissociation. Potency, µM (series often up to 46.1 µM), without a hit: at the highest dose activity change, negative = inhibition. Snurportin-1 (Homo sapiens) + GTP-binding nuclear protein Ran (Homo sapiens) + Importin …. Biochemical FRET Rango-importin beta, RanGTP-induced dissociation. 0.071% of 340,000 active; active means falling FRET ratio curve, often poorly fitted, with flat reads before Ran was added; inconclusive means other falling curves, or compound fluorescence or quenching; inactive means flat or rising ratio curve;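 also: potency is read from the fitted curve at half-maximal effect; % of control where 0% means no effect; nearly all actives have a fitted effect of over 45% in size; -100% = wells without RanGTP and RCC1; the record marks most hits as doubtful in a second field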
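FRET read at 45 min, room temperature: inhibitors block the CFP/YFP signal rise when RanGTP (0.6 uM Ran, 2 mM GTP, 0.2 uM RCC1) frees Rango (0.1 uM) from importin beta (0.25 uM). Pre-read after 5 min compound exposure flags interference.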
Rango-impB inh = qHTS Assay for Inhibitors of Rango (Ran-regulated importin-beta cargo) - Importin beta complex formation. Rango CFP/YFP FRET sensor + importin beta, 45 min. Potency, µM (doses to about 92.2 µM), for inactives: at the top dose inhibition of complex formation. 0.031% of 340,000 active. AID 540263, 2011; active = rising FRET ratio curve, often small or poorly fitted; inconclusive = mostly compound fluorescence or quenching in the first reads; inactive = flat curves in all reads;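 also: potency is read from the fitted curve at half-maximal effect; 0% = DMSO wells and 100% = buffer wells lacking importin beta; nearly all actives have a fitted effect of over 15% in size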
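FRET biosensor Rango (snurportin 1 IBB between N-terminal EYFP and C-terminal Cerulean), 50 nM in PBS/1 mM DTT/0.02% Tween-20/0.1% BSA, preincubated 5 min RT with compound; 0.125 microM importin beta added, 45 min RT, CFP/YFP FRET ratio read.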
The depositor's hits bear a star; ? = inconclusive; . = no result given; & = joins results of further samples.

GLA inh pH 4.5	miR-21 FLuc	Rango release inh	Structure	Rango-impB inh
-5.6	-1.7%	17.6%	CCN(CC)CCC/C(=N\O)C(O)(c1ccccc1)c1ccccc1	-1.2%
0.3	3.0%	6.5%	O=C(CCN1C(=O)c2ccccc2C1=O)N1CCOCC1	-3.6%
.	-1.7%	3.3%	Cc1cccc(NC(=O)c2cc(S(=O)(=O)N3CCc4ccccc43)cn2C)c1C	0.9%
-5.4	-4.0%	-0.6%	Cc1cc(C(=O)N2CCN(C(c3ccccc3)c3ccccc3)CC2)on1	?
-0.3	-2.1%	-1.7%	Cn1c(SCC(=O)NNC(=O)c2ccc(Cl)cc2)nnc1-c1cccnc1	-0.1%
.	.	16.8%	COc1ccc2c(c1)[C@@H]1[C@H](CO2)[C@H](c2ccccc2)[C@]2(C)C(=O)Nc3ccc(C)cc3C(=O)N12	-0.9%
0.0	0.2%	1.7%	CN1CC2([N+](=O)[O-])CC=C(OCCO)C([N+](=O)[O-])(C1)C2 (stereo not given)	-0.3%
-6.1	14.5%	0.0%	Cc1ccc(C)c(Nc2cc(C(=O)NCc3cccnc3)c3ccccc3n2)c1	-1.2%

(further entries)
GLA inh pH 4.5	miR-21 FLuc	Rango release inh	Structure	Rango-impB inh
.	.	6.1%	CC(C)CN(C(=O)COC(=O)/C=C/c1ccc(Cl)c(Cl)c1)c1c(N)n(Cc2ccccc2)c(=O)[nH]c1=O	?
.	0.1%	-30.0%	COC(=O)c1cc(S(=O)(=O)N(C)Cc2ccco2)c[nH]1	-0.2%
8.0	-9.0%&-3.0%	-7.0%	c1ccc(-c2nnc(CN3CCN(c4ccccc4)CC3)o2)cc1	-3.9%
.	-6.0%	-1.2%	O=S(=O)(c1cc(F)ccc1F)N1CCN(c2ccccn2)CC1	-0.2%
-8.2	-15.7%	6.3%	N#Cc1nc(COc2ccc(Cl)cc2)oc1N1CCCCCC1	-0.2%
-5.0	-12.5%	-10.5%	Cn1c(=O)c2c(nc(N/N=C/c3cccs3)n2Cc2ccccc2)n(C)c1=O	0.2%
11.1	0.1%	4.5%	CCC(C)c1ccccc1NC(=S)Nc1cccnc1 (stereo not given)	0.0%
-2.8	-1.5%	2.1%	CSCCC(NC(=O)c1ccc([N+](=O)[O-])cc1Cl)C(=O)OCC(=O)NC1CCCC(C)C1C (stereo not given)	-4.2%

(more compounds)
GLA inh pH 4.5	miR-21 FLuc	Rango release inh	Structure	Rango-impB inh
-2.8	-3.1%	6.9%	O=C(NCc1ccco1)c1ccccc1-c1nc(-c2ccccc2)no1	2.8%
.	.	6.4%	CCCn1nc(C(=O)N2CCN(c3ccccn3)CC2)c2ccccc2c1=O	-0.9%
7.4	-5.5%	-1.7%	CCOc1ccc(OCC)c(NC(=O)CSc2nnc(Cn3cnc4ccccc43)n2C)c1	-2.1%
3.4	-0.3%	-7.9%	CCOC(=O)COn1c(=O)c(=O)n(OC)c2ccccc21	-2.8%
.	-2.4%	-1.0%	O=C(NCc1ccc2c(c1)OCO2)C1CC(=O)N(c2ccc(Cl)cc2)C1 (stereo not given)	-3.5%
-11.3	-46.7%	-18.3%	COc1cc(C(C#N)N2CCC(c3ccccc3)=N2)ccc1O (stereo not given)	?
.	7.5%	-9.4%	Cc1cc(-c2nn(-c3ccccc3F)cc2CN2CCCC(O)C2)c(C)s1 (stereo not given)	2.5%
2.8	-12.8%	44.8%	O=C(C1CCC(Cn2c(=S)[nH]c3ccccc3c2=O)CC1)N1CCOCC1 (stereo not given)	2.4%

(more compounds)
GLA inh pH 4.5	miR-21 FLuc	Rango release inh	Structure	Rango-impB inh
7.0	-5.8%	7.2%	CC(C)(CO)N1CCN(C(=S)Nc2ccccc2)CC1	-1.3%
.	.	-9.1%	COc1ccccc1C(=O)NC(CCSC)C(=O)NCc1ccccn1 (stereo not given)	0.1%
-14.7	-29.5%	-0.4%	CCC(Oc1ccccc1)C(=O)Nc1ccc(-c2nnc(-c3ccco3)o2)cc1 (stereo not given)	?
-7.3	5.3%	-4.7%	COc1ccc(S(=O)(=O)N2CCc3ccccc32)cc1C(=O)Nc1cccnc1	0.3%
.	-0.8%	1.3%	Cn1c(N)c(S(=O)(=O)N2CCN(c3ccccc3F)CC2)c(=O)n(C)c1=O	6.1%
.	.	10.1%	Cc1cc(C(=O)CCC(=O)NNC(=O)c2ccccc2O)c(C)s1	?
-10.8	-71.8%	-7.2%	Cc1cc(/C=C(\C#N)C(=O)Nc2ccccc2)c(C)n1-c1cccnc1	1.9%
.	.	-14.7%	O=C(CNc1cccc(S(=O)(=O)N2CCCC2)c1)Nc1ccc(F)cc1F	-1.0%

The list continues.
GLA inh pH 4.5	miR-21 FLuc	Rango release inh	Structure	Rango-impB inh
.	.	-0.5%	O=C(NN=Cc1ccc(O)cc1)C(=O)NN=Cc1ccc(O)cc1	2.6%
.	.	2.9%	COc1ccc(S(=O)(=O)N2CCCCCC2)cc1C(=O)N(C)Cc1cccc(OC)c1OC	0.2%
-12.7	4.7%	-4.7%	CC(=O)N1CCc2cc(Br)cc(S(=O)(=O)CCC(=O)N3CCN(c4ccccn4)CC3)c21	3.5%
-5.5	-21.2%	0.4%	CS(=O)(=O)NCc1csc(-c2ccccc2)n1	-0.2%
.	-3.4%	-14.0%	CCn1nc(NS(=O)(=O)c2ccc(NC(C)=O)cc2)c2cc3ccccc3nc21	-0.7%
.	6.4%	0.3%	COc1ccc(Nc2nc(-c3sc(C)nc3C)cs2)cc1	-3.0%
.	-9.4%	-8.2%	COc1cccc(NC(=O)CNC(=O)Cn2cnc3sc(C)c(C)c3c2=O)c1	0.0%
-0.1	-5.2%	-8.1%	O=C(Nc1ccc2snnc2c1)N1CCOCC1	1.5%

(listing goes on)
GLA inh pH 4.5	miR-21 FLuc	Rango release inh	Structure	Rango-impB inh
-9.3	27.4%	-18.3%	COc1cc(C2C(C#N)=C(N)Oc3c2ccc2ccccc32)ccc1OCC(=O)Nc1ccccc1C (stereo not given)	0.2%
3.8	-5.7%	0.5%	CN1CCN(c2nc3c(c(=O)[nH]c(=O)n3C)n2CCCSc2nnnn2-c2ccccc2)CC1	-1.7%
.	-7.4%	10.2%	CC1(C)Cc2nc3sc4c(=O)n(CC(N)=O)cnc4c3cc2CO1	-1.6%
-11.8	?	0.9%	O=C(Nc1cccc(S(=O)(=O)N2CCCC2)c1)c1ccc2c(=O)n3c(nc2c1)CCCCC3	0.7%
.	.	-6.5%	O=C(Nc1ccc(C(=O)N2CCCC(CO)C2)cc1)c1ccc(Br)o1 (stereo not given)	-2.5%
0.2	-34.1%	9.9%	Cc1ccc(C2=Nc3ccc(Br)cc3C(c3ccncc3)=NN2)cc1	3.5%
9.7	-1.2%	-5.2%	CCC(=O)NC1OC(CO)C(O)C(O)C1O (stereo not given)	1.4%
1.3	-5.9%	-11.1%	CCOC(=O)N1CCC(NC(=O)c2cc(S(=O)(=O)N3CCc4ccccc43)cn2C)CC1	3.3%

Later entries.
GLA inh pH 4.5	miR-21 FLuc	Rango release inh	Structure	Rango-impB inh
-4.8	20.9%	-15.3%	Cc1ccc(C(=O)Nc2ccc(Cc3ccncc3)cc2)cc1[N+](=O)[O-]	5.3%
7.9	-2.7%	?	CCOC(=O)CN1C(=O)S/C(=C/c2ccc(N3CCCCC3)o2)C1=O	?
-3.6	2.7%	14.5%	Cn1c(SCC(=O)c2c(N)n(C)c(=O)n(C)c2=O)nnc1-c1ccccc1	-2.2%
-16.4	-3.1%	1.8%	COc1ccc(C(=O)c2cnc[nH]2)cc1OC	-4.3%
-18.8	-0.3%	-8.4%	COc1ccccc1CC(=O)NNS(=O)(=O)c1ccccc1[N+](=O)[O-]	-3.1%
.	-0.1%	-8.1%	Cc1ccc(C(=O)NCc2nnc3c(C(F)(F)F)cc(Cl)cn23)o1	1.5%
.	.	-10.0%	CN(C)Cc1cc(C(C)(C)c2ccccc2)ccc1O	6.3%
2.1	-4.5%	1.1%	CCc1nc(-c2ccccc2)cc(=O)[nH]1	-1.8%

The list goes on.
GLA inh pH 4.5	miR-21 FLuc	Rango release inh	Structure	Rango-impB inh
.	-1.4%	1.2%	Cc1oc(-c2ccccc2F)nc1CSCC(=O)NC1CC1	-0.2%
.	-3.4%	1.3%	COc1ccc(CCn2c(C)cc3c(c2=O)C(c2ccncc2)C(C#N)=C(N)O3)cc1OC (stereo not given)	-0.6%
.	.	1.4%	Cc1ccc(S(=O)(=O)N2CCCCC2CCNC(=O)C(=O)NCc2ccccc2)cc1 (stereo not given)	-0.6%
2.6	5.7%	-1.5%	Cc1ccc(N2NC3(CCN(C(N)=O)CC3)NC2=O)cc1	-3.5%
7.6	-11.3%	4.9%	CC(C)n1c(O)c(N=Nc2ccc(Cl)nn2)c2ccccc21	-1.1%
7.0	18.4%	1.3%	COc1ccc(C(=O)c2cnc3ccccc3c2-c2ccccc2)cc1	1.4%
9.2	0.1%	12.3%	CC(C)CCNC(=O)C(C)N(Cc1ccc(F)cc1)C(=O)c1ccc(CN2CCOCC2)o1 (stereo not given)	1.5%
.	-3.8%	-16.4%	Clc1ccc(Cn2nnc3ccccc32)cc1	-5.2%

(continued)
GLA inh pH 4.5	miR-21 FLuc	Rango release inh	Structure	Rango-impB inh
2.9	-53.5%	-15.8%	CC(=O)c1sc(NC(=O)c2ccc(C)cc2)nc1C	0.1%
0.2	0.7%	15.1%	Cc1ccccc1-n1c(SC2CCOC2=O)nnc1-c1ccncc1 (stereo not given)	-0.3%
.	.	-9.4%	Cc1cc(C)c(S(=O)(=O)Nc2ccc(C(=O)O)cc2)cc1S(=O)(=O)Nc1ccc(C(=O)O)cc1	1.9%
.	-0.4%	1.1%	CCCOc1ccc(-c2c(C(=O)N/N=C/c3cccnc3)nnn2-c2nonc2N)cc1	6.6%
1.6	-15.6%	-20.2%	CCOc1ccc(Br)cc1S(=O)(=O)Nc1ccc(NC(=O)c2ccccc2F)cc1	-2.9%
-2.6	0.3%	-1.6%	C=CCNC(=S)/N=c1/ccccn1CC	-2.9%
.	.	6.5%	CN(CC(=O)Nc1ccc(Cl)c(C(F)(F)F)c1)C(=O)Cc1c[nH]c2ccccc12	-0.6%
-1.6	-5.6%	4.8%	O=C(c1ccco1)N1CCN(S(=O)(=O)c2ccc3[nH]c(=O)oc3c2)CC1	-0.1%

(listing goes on)
GLA inh pH 4.5	miR-21 FLuc	Rango release inh	Structure	Rango-impB inh
.	-12.0%	-4.7%	COc1ccc(C(C(=O)NC2CCCCC2)N(C(=O)c2snc(C(N)=O)c2N)c2ccccc2OC)cc1 (stereo not given)	?
.	14.4%	-5.6%	c1ccc(SCc2cn(C[C@H]3CC[C@@H]([C@@H]4CC[C@H](Cn5cc(CSc6ccccc6)nn5)O4)O3)nn2)cc1	4.9%
0.5	-1.8%	-15.1%	COc1ccccc1-c1cc(C(=O)N2CCN(c3ccc(F)cc3)CC2)no1	-0.8%
-4.5	-0.9%	-7.9%	Cn1c(SCC(=O)Nc2ccccc2)nnc1-c1ccc2nonc2c1	-0.3%
-5.2	-1.5%	1.4%	Cc1ccc(CC(=O)NCCCn2ccnc2)cc1	-4.3%
6.1	1.5%	16.5%	CCOC(=O)C(Cc1ccccc1)C(=O)Nc1cccc2ccccc12 (stereo not given)	-0.3%
.	.	-12.5%	CCCN(C(=O)c1cc(-c2ccco2)nc2ccccc12)c1c(N)n(Cc2ccccc2)c(=O)[nH]c1=O	-3.0%
.	-15.6%	-16.6%	O=C(N/N=C/c1ccccc1O)c1ccc2c(c1)OCO2	-3.4%
-4.9	?	12.8%	O=C1c2ccccc2S(=O)(=O)N1Cc1nc2ccccc2s1	-0.1%
0.3	2.4%	-0.2%	COc1ccc(CC(=O)OCC(=O)Nc2ncc(Cl)cc2Cl)cc1OC	0.4%
1.5	11.4%	-0.8%	Cc1cc(C)c2nc(N3CCC(C(=O)N4CCN(C(=O)c5ccco5)CC4)CC3)sc2c1	-0.3%

Assay outcomes as filed in PubChem BioAssay.

This is a subset, so the mix of outcomes need not match the whole.
